Bioassay records from PubChem.
2A StopGo – FMDV 2A StopGo reporter, luciferase signal; human cells with a luciferase reporter of 2A StopGo recoding; control for the full effect not named in the record; 410,000 compounds, 1.2% hits; Potency, µM (doses to about 57.9 µM), inactives show top-dose signal change, negative = less light; active = well fitted falling curve with a large enough effect; inconclusive = small, poorly fitted or top-dose-only effect; inactive = no such curve, though single readings can be large or run the other way; tested in HEK293T cells; further: on the % scale 0 is the no-effect control and ±100 the full control effect; nearly all actives have a fitted effect of over 45% in size; luciferase light after 4 h
RE007 growth inh – less growth of the S. pombe RE007 Vpr strain. Potency, µM (highest dose often 92.2 µM), for the others: top-dose activity change, negative = less growth. 360,000 compounds, 0.21% hits. S. pombe RE007 Vpr strain, BacTiter-Glo ATP luminescence, 24 h; control for the full effect not named in the record; active = well fitted falling curve with a large enough effect; inconclusive = small, poorly fitted or top-dose-only effect; inactive = no such curve, though single readings can be large or run the other way;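 further: on the % scale 0 is the no-effect control and ±100 the full control effect; nearly all actives have a fitted effect of over 50% in size; the assay follows cell death caused by Vpr and the record does not say whether a fall means rescue or toxicity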
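Fission yeast RE007 carrying one integrated HIV-1 vpr copy, seeded at OD 0.01 in PMG+AL medium with 23 nL pinned compound. Grown 24 h at 30 degrees; viability read by BacTiter-Glo luminescence after 5 min.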
LASV entry inh – inhibitors of Lassa virus binding or cell entry; Lassa virus pseudotype entry inhibition, cell reporter; control for the full effect not named in the record; Potency, µM (top dose mostly 37.9 µM), for inactives: at the highest dose activity change, negative = inhibition, actives largely listed as inhibitors; 300,000 compounds, 1.2% hits; active means well fitted inhibition curve with a large enough effect; inconclusive means small, poorly fitted or top-dose-only effect, or effect the other way; inactive means flat fitted curve, though single readings scatter; tested in HEK293 cells; further: on the % scale 0 is the no-effect control and ±100 the full control effect; nearly all actives have a fitted effect of over 50% in size; luciferase read-out
Cruzain inh Det – inhibitors of Trypanosoma cruzi cruzain with detergent. purified cruzain, Z-FR-AMC fluorescence, 0.01% Triton. AID 1478. 200,000 compounds, 0.43% hits. Potency, µM, for the others: max response, negative = inhibition, hits mostly inhibitors. P25779;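 further: plate controls were neutral wells for no effect and buffer without enzyme for full effect; nearly all actives have a fitted effect of over 40% in size; top concentration of the series not given in the record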
Target sequence (P25779 123-467 limits assumed): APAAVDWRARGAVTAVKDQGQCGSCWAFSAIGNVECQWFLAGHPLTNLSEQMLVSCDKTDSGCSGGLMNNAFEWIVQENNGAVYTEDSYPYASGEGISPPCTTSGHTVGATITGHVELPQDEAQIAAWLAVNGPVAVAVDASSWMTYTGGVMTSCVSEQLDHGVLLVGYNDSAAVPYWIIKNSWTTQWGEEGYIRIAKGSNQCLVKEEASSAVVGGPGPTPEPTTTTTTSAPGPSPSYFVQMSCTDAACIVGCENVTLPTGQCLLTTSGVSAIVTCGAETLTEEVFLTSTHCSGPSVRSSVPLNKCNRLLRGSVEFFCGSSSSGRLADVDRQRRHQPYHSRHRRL
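In this qHTS format, compounds are incubated with 1.5 nM cruzain for 15 min at room temperature before 2 uM Z-FR-AMC is added. Release of AMC is followed at 360/450 nm, and progress is taken as the 60 s fluorescence difference.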
Marburg entry inh – inhibitors of Marburg virus binding or cell entry | Marburg virus pseudotyped entry inhibition, cell reporter; control for the full effect not named in the record; about a third of the inactives were read at about 46 µM | AID 540276 | Potency, µM (titrated, usually from 37.8 µM), for inactives: at the top dose activity change, negative = inhibition, actives largely listed as inhibitors | 300,000 compounds, 1.8% hits; active = well fitted inhibition curve with a large enough effect; inconclusive = small, poorly fitted or top-dose-only effect, or effect the other way; inactive = flat fitted curve, though single readings scatter; tested in HEK293 cells; about a fifth of its hits are not listed in these tables; further: on the % scale 0 is the no-effect control and ±100 the full control effect; luciferase read-out
SARS PLpro yeast – inhibitors of SARS-CoV papain-like protease in yeast; S. cerevisiae expressing SARS-CoV PLpro, growth rescue; control for the full effect not named in the record; Potency, µM (doses to about 32.9 µM), without a hit: at the highest dose activity, positive = growth rescue; 330,000 compounds, 0.19% hits; AID 485353; active means well fitted rising curve with a large enough effect; inconclusive means small, poorly fitted or top-dose-only effect; inactive means no such curve, though single readings can be large or run the other way; further: 0% is about no effect; nearly all actives have a fitted effect of over 55% in size; growth read by luminescence after 48 h
Cruzain inh noDet – blocks cruzain activity in detergent-free assay; purified cruzain, Z-FR-AMC fluorescence, no detergent; Potency, µM, without a hit: max response, negative = inhibition, hits mostly inhibitors; 200,000 compounds, 2.3% hits;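 further: plate controls were enzyme without inhibitor for no effect and buffer without enzyme for full effect; nearly all actives have a fitted effect of over 40% in size; top concentration of the series not given in the record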
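Detergent-free condition (0.00005% Triton X-100) in acetate buffer pH 5.5 with DTT. 1.5 nM enzyme and compound were pre-mixed 15 min, then 2 uM Z-FR-AMC substrate added; reaction progress from fluorescence change between first and third reads (60 s).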
NS1 inh – influenza NS1 inhibition; S. cerevisiae slowed by influenza A NS1, growth recovery by OD600; Potency, µM (top dose mostly 46.1 µM), without a hit: top-dose activity, positive = more growth; 270,000 compounds, 0.4% hits; active means well fitted rising curve with a large enough effect; inconclusive means small, poorly fitted or top-dose-only effect; inactive means no such curve, though single readings can be large or run the other way; further: nearly all actives have a fitted effect of over 50% in size
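Recovery from NS1-induced slow growth read by OD600 in budding yeast switched to galactose assay medium (pH 6.0, -URA) at 1:100 dilution. Compound 23 nl per well; the matching strain lacking NS1 serves as control.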
* marks the source's active call; other numbers are inactive results; ? = inconclusive; nt = no result given; & = joins results of further samples; [ ] = dose if it differs, or a comment. Unless noted, the call rests on the fitted dose curve; in most records, active means well fitted curve in the direction sought with a large enough effect; inconclusive means small, poorly fitted or top-dose-only effect, or another doubt; inactive means no such curve, though single readings can be large; an effect the other way counts as inactive or inconclusive. Potency means the concentration at half of the fitted maximal effect.

SMILES | 2A StopGo | RE007 growth inh | LASV entry inh | Cruzain inh Det | Marburg entry inh | SARS PLpro yeast | Cruzain inh noDet | NS1 inh
CCc1ccc2oc(-c3cc(N)ccc3O)nc2c1 | 25µM* | ? | ? | -5.7% | ? | 12% | ? | ?
CCS(=O)(=O)Nc1ccc(Cc2ccncc2)cc1 | -21% | 3% | 17% | 0.1% | 11% | 3% | 3% | 15%
O=C(COc1ccccc1F)OCc1cc(=O)n2nc(-c3cccs3)sc2n1 | 0% | nt | ? | 1.0% | nt | nt | -6% | nt
CCn1c(CNC(=O)c2ccccc2F)cc2cc(C)ccc21 | 32%[activator] | 0% | 6% | nt | 14% | -2% | nt | 6%
Cc1ccc(-c2cc(C(=O)Oc3ccc(C#N)cc3)no2)cc1C | -14% | nt | -4%[46.1 µM] | -4.0% | 9%[46.1 µM] | nt | 4% | nt
COc1cccc(NC(=O)Cc2csc(COc3cccc(C)c3)n2)c1 | 19% | nt | 28%[46.1 µM] | -9.5% | 1%[46.1 µM] | nt | 3% | nt
COc1ccc(NC(=O)Nc2nnc(-c3ccccc3SCc3ccccc3)s2)cc1 | -8% | 1% | -7% | 7.9% | 5% | 4% | 10µM* | -2%
COc1ccc(CCN2CC(C(=O)O)CC2=O)cc1OC (centres undefined) | -20% | 16% | ? | 5.5% | 23%[46.1 µM] | -3% | ? | -4%
COc1ccc(CC(=O)Nc2ccc3c(c2)C(=O)N(CCC(=O)O)C3=O)cc1 | -6% | 1% | nt | nt | nt | 6% | nt | ?
CCOC(=O)c1cc[nH]c1C | 0% | 3% | 14% | nt | 14% | 0% | nt | nt
COCCOC(=O)C1=C(C)NC(=O)NC1c1ccco1 (centres undefined) | -1% | 138% | 1%[46.1 µM] | nt | ? | 0% | nt | 1%
N#CCC(=O)NNC(=S)NC(=O)C(c1ccccc1)c1ccccc1 | -10% | 5% | 6% | nt | 5%[46.1 µM] | -1% | nt | 4%
COc1cccc(-c2nc(NCc3cccnc3)c3ccccc3n2)c1O | 8% | 7% | -21%[46.1 µM] | nt | ? | 1% | nt | 0%
COc1cc(N2C(=O)CSC23C(=O)N(C)c2ccccc23)cc(OC)c1OC (centres undefined) | 2% | nt | 1%[46.1 µM] | -0.4% | nt | nt | -1% | nt
CCN1CCN(Cc2c(O)ccc3c2O/C(=C\C=C\c2ccccc2)C3=O)CC1 | -12% | 2% | ? | -16% | ? | -3% | 2% | 10µM*
CCOc1ccc(C(=O)CSc2nnc3cc(C)c4ccccc4n23)cc1 | -12% | nt | 25%[46.1 µM] | -2.8% | 27%[46.1 µM] | nt | ? | nt
Cc1cc(C)cc(NC(=O)NC2CCN(CC(=O)Nc3cccc(Cl)c3C)CC2)c1 | -21% | -23% | -4% | nt | -14% | 1% | nt | -5%
CCCS(=O)(=O)NCCc1csc(-c2ccc(OC)c(OC)c2)n1 | -23% | 2% | ? | nt | 2%[46.1 µM] | 0% | nt | -7%
CC1CCCC(C)N1/N=C/c1ccc(C(=O)O)cc1 (centres undefined) | 4% | -4% | 10% | nt | 26% | 0% | nt | -1%
Nc1ccc(C(=O)N2CCN(S(=O)(=O)/C=C/c3ccccc3)CC2)cc1[N+](=O)[O-] | -19% | -7% | 2% | nt | -26% | 2% | nt | nt

Single records (already shown).
`CCOc1ccc(C(=O)CSc2nnc3cc(C)c4ccccc4n23)cc1` is listed with 2A StopGo = -12%; RE007 growth inh = nt; LASV entry inh = 25%[46.1 µM]; Cruzain inh Det = -2.8%; Marburg entry inh = 27%[46.1 µM]; SARS PLpro yeast = nt; Cruzain inh noDet = ?; NS1 inh = nt
`CCCS(=O)(=O)NCCc1csc(-c2ccc(OC)c(OC)c2)n1` is listed with 2A StopGo = -23%; RE007 growth inh = 2%; LASV entry inh = ?; Cruzain inh Det = nt; Marburg entry inh = 2%[46.1 µM]; SARS PLpro yeast = 0%; Cruzain inh noDet = nt; NS1 inh = -7%

Other structures:
SMILES | 2A StopGo | RE007 growth inh | LASV entry inh | Cruzain inh Det | Marburg entry inh | SARS PLpro yeast | Cruzain inh noDet | NS1 inh
CCn1nnnc1-c1ccc(OC)c(S(=O)(=O)Nc2ccc(C(=O)OC)cc2)c1 | nt | 3% | 7% | 4.8% | 4% | -2% | -6% | 0%
O=C(COC(=O)c1ccc(NS(=O)(=O)c2ccc3c(c2)OCCO3)cc1)NCC1CCCO1 (centres undefined) | 13% | -1% | 1% | 2.6% | 6%&6% | 0% | -3% | -16%
COC(=O)c1cc(NS(=O)(=O)c2ccc(C(C)C)cc2)ccc1N1CCOCC1 | 21% | 16% | -23% | nt | ? | 2% | nt | -3%
Cc1c(C(=O)NNC(=S)Nc2ccc(S(N)(=O)=O)cc2)oc2ccccc12 | -10% | 10% | nt | nt | nt | 0% | nt | 3%
Cc1nnc2c(NCC(C)c3ccccc3)nc3ccccc3n12 (centres undefined) | -21% | 11% | nt | nt | nt | -2% | nt | 0%
Cc1[nH]c(=O)[nH]c(=O)c1/C=N/NC(=O)CCNC(=O)OC(C)(C)C | -7% | 3% | nt | nt | nt | 3% | nt | 3%
CCOc1ccc(NS(=O)(=O)c2ccc(C(=O)NCC(c3ccc(OC)cc3)N3CCCC3)cc2)cc1 (centres undefined) | 13% | -19% | ? | nt | ? | 1% | nt | nt
O=C(COc1ccccc1/C=C\c1[nH]c(=O)[nH]c(=O)c1[N+](=O)[O-])Nc1ccccc1 | 10% | 14% | 20%[46.1 µM] | nt | 9%[46.1 µM] | 0% | nt | nt
Cc1cccc(C)c1Nc1oc(-c2ccccc2)nc1-c1ccccc1F | nt | nt | -10%[14.3 µM] | 2.1% | ? | nt | -6% | nt
O=C(NNC(=O)c1ccc(Cl)s1)c1csc(N2CCOCC2)n1 | -17% | 2% | ? | nt | -5% | 3% | nt | nt
COc1ccc(CNC(=O)CCN2C(=O)c3ccccc3S2(=O)=O)cc1 | 5% | -7% | 1% | nt | 0% | -3% | nt | nt
CC(C)c1ccccc1NC(=O)COC(=O)C1(C)CC1(Cl)Cl (centres undefined) | -17% | -14% | 7%[46.1 µM] | nt | ? | -10% | nt | nt
O=C1C(Cl)=C(N2CCCCCC2)C(=O)N1c1ccc(Cl)cc1 | 31%[activator] | -25% | nt | nt | nt | -4% | nt | -8%
O=C(COC(=O)C1CC2C=CC1C2)NCc1ccc(F)cc1 (centres undefined) | 2% | 4% | 6% | 1.0% | 1% | 20% | 2% | -5%
CCOc1ccc(-n2c(C)c(C(C)=O)c3cc(OC(C)=O)ccc32)cc1 | ? | 1% | nt | nt | nt | 2% | nt | -5%
S=c1[nH]nc(-c2ccco2)n1/N=C/C=C/c1ccccc1 | 25% | -7% | ? | -7.3% | 7% | -4% | -6% | 0%
COc1ccc(NC(=O)c2sc(SC)nc2N)cc1 | nt | -4% | 11% | -0.9% | 21%&21% | -3% | -6% | -10%
COc1ccc(C(=O)NC(C)Cn2nc(C)cc2C)cc1OC1CCN(C(C)=O)CC1 (centres undefined) | -8% | 1% | 25% | nt | ? | -4% | nt | 6%
O=C(CCN1C(=O)c2ccccc2C1=O)Nc1ccc(-c2nc3ccccc3o2)cc1 | 16% | -1% | ? | -3.9% | 16%&16% | 12% | -2% | -8%
O=C1CC(NN2CCCCC2)C(=O)N1c1ccccc1 (centres undefined) | 49%[activator] | -20% | ? | nt | 15%[46.1 µM] | -5% | nt | 2%
COc1ccc(Cl)cc1NS(=O)(=O)c1ccc(OC)c(OC)c1 | 46%[activator] | -6% | -12% | -8.5% | -28% | 18% | -2% | -7%
COCCNC(=O)CSc1ccccc1C(=O)NC1CCSc2ccccc21 (centres undefined) | -5% | 4% | ? | nt | 7%[46.1 µM] | 0% | nt | 2%
Cc1nnc(NC(=O)CSc2nccn2Cc2ccccc2)s1 | -4%&1% | 14% | -9% | 2.6% | 28%&28% | -6% | -14% | -4%
O=[N+]([O-])c1ccc(-c2ccc(S(=O)(=O)NCCN3CCCC3)cc2)cc1 | -24% | -3% | ? | nt | 18µM* | -4% | nt | nt
Cc1ccc(S(=O)(=O)N2CCN(S(=O)(=O)N3CCC(C)CC3)CC2)cc1C | -4% | 6% | -7% | nt | 1% | 1% | nt | 6%
CC(C)C(=O)Nc1cccc(NC(=O)c2cccnc2)c1 | 6% | 3% | -8% | 0.5% | 26% | 6% | 10% | -25%
O=c1c2oc3ccccc3c2ncn1Cc1ccc(Br)cc1 | 25% | nt | 0%[46.1 µM] | -9.4% | nt | nt | -9% | nt
Cc1csc2ncc(C(=O)Nc3ccccc3F)c(=O)n12 | 24% | -14% | nt | -3.7% | nt | -8% | -11% | -44%
Cc1ccc(CNC(=O)CCc2nnc3ccc(NCCCN4CCCC4=O)nn23)cc1 | -2% | 11% | nt | nt | nt | 2% | nt | -4%
CS(=O)(=O)NCc1nnc(SCc2ccccc2C(F)(F)F)o1 | nt | 13% | 0% | -1.5% | -24% | -1% | 0% | 6%
O=C(NCCCOc1cccc(CN2CCCCC2)c1)c1ccc(Cl)c(Cl)c1 | -14% | -19% | ? | -6.8% | ? | -17% | -9% | -12%
CC(=O)Nc1cccc(-n2nnc(SCC(=O)c3ccccc3)n2)c1 | 47%[activator] | -6% | nt | nt | nt | 0% | nt | -1%
N#Cc1c2c(c(NCCOCCO)n3c1nc1ccccc13)CCCC2 | -19% | -10% | 1% | nt | -3%[46.1 µM] | -1% | nt | nt

Just 2A StopGo, RE007 growth inh and SARS PLpro yeast, for two of the compounds above:
SMILES	2A StopGo	RE007 growth inh	SARS PLpro yeast
COc1ccc(NC(=O)c2sc(SC)nc2N)cc1	nt	-4%	-3%
COCCOC(=O)C1=C(C)NC(=O)NC1c1ccco1 (centres undefined)	-1%	138%	0%

This is a random part of the collection; 4.7% or so of the library scored in one or more.
